nsP2pro inh = inhibitors of chikungunya virus nsP2 protease | Q8JUX6 | FRET peptide cleavage, nsP2pro, fluorescence 1 h | AID 1964107 | Potency, µM (top dose mostly 24.9 µM), for the others: at the highest dose activity change, negative = inhibition, hits mostly inhibitors | actives 1.1% (n = 31,000); active means well fitted inhibition curve with a large enough effect; inconclusive means small, poorly fitted or top-dose-only effect; inactive means no such curve, though single readings can be large or run the other way; note: nearly all actives have a fitted effect of over 60% in size; a reference inhibitor and vehicle were the controls
Numbers without * were called inactive; i = inactive; ? = inconclusive; & = joins results of further samples; [ ] = remark or other dose. % is set by controls: 0 for no effect and ±100 for the full control effect; potency is the fitted concentration of half-maximal effect. Not all compounds are listed. The share of hits here may be higher or lower than overall.

SMILES | nsP2pro inh
COCCn1c(CNC(=O)c2cc([N+](=O)[O-])ccc2Cl)nc2cccnc21 | -15%
Cc1noc(C)c1-c1cnc(Nc2ccc(CN3CCN(C)CC3)cc2)c2c1CCO2 | -9%[39.2 µM]
COc1ccc(C(=O)CN2CCN(S(=O)(=O)c3ccc(F)cc3)CC2)cc1 | -29%
CCOc1ccc(NC(=O)c2cnn3c2NC(c2ccccc2)=CC3c2cccc(OC)c2OC)cc1 (configuration not stated) | 5%
CCCCNc1nc(C)nc2c1nc(-c1ccccc1)n2CCN1CCCC1 | -2%
CCCCN1CCc2nc(Nc3ccc(OC)cc3OC)ncc2C1 | -19%
COc1cccc(CN2CCn3c(nnc3[C@@H]3C[C@@H](O)CN3Cc3cccnc3)C2)c1OC | 27%
O=C(NCC1CN(C(=O)NC2CCCCC2)CC12CCCCC2)C1CC1 (configuration not stated) | 3%
CC(/C=C/C1(O)C(C)(C)CC(O)CC1(C)O)OC1OC(CO)C(O)C(O)C1O (configuration not stated) | 56%[10 µM]
CC(=O)OC(C)(C)/C=C/C(=O)[C@](C)(O)[C@H]1C(O)C[C@@]2(C)[C@@H]3CC=C4[C@@H](C=C(O[C@@H]5O[C@H](CO)[C@@H](O)[C@H](O)[C@H]5O)C(=O)C4(C)C)[C@]3(C)C(=O)C[C@]12C (some centres not stated) | 0%[10 µM]
CCCCCC(=O)N[C@@H](CC(C)C)C(=O)N[C@H](C=O)CCC(=O)O | -19%
O=C(Nc1ccc(Cl)cc1)N1CCN(c2ccc3nnc(-c4ccccc4)n3n2)CC1 | 3%
O=C(CC1CCCN(c2cn[nH]c(=O)c2)C1)N1CCCCC1 (configuration not stated) | -8%
Cc1cc2c(s1)c1cnn(Cc3cccc(F)c3)c(=O)c1n2C | -4%
C/C=C(/C(=C/C)c1ccc(O)cc1)c1ccc(O)cc1 | 6%

Exported in markdown: entries from further up.
| Molecule | nsP2pro inh |
| --- | --- |
| CC(/C=C/C1(O)C(C)(C)CC(O)CC1(C)O)OC1OC(CO)C(O)C(O)C1O (configuration not stated) | 56%[10 µM] |
| CC(=O)OC(C)(C)/C=C/C(=O)[C@](C)(O)[C@H]1C(O)C[C@@]2(C)[C@@H]3CC=C4[C@@H](C=C(O[C@@H]5O[C@H](CO)[C@@H](O)[C@H](O)[C@H]5O)C(=O)C4(C)C)[C@]3(C)C(=O)C[C@]12C (some centres not stated) | 0%[10 µM] |
| CCCCCC(=O)N[C@@H](CC(C)C)C(=O)N[C@H](C=O)CCC(=O)O | -19% |
| O=C(Nc1ccc(Cl)cc1)N1CCN(c2ccc3nnc(-c4ccccc4)n3n2)CC1 | 3% |
| O=C(CC1CCCN(c2cn[nH]c(=O)c2)C1)N1CCCCC1 (configuration not stated) | -8% |
| Cc1cc2c(s1)c1cnn(Cc3cccc(F)c3)c(=O)c1n2C | -4% |
| C/C=C(/C(=C/C)c1ccc(O)cc1)c1ccc(O)cc1 | 6% |

The main list resumes with the three entries that preceded the break.
SMILES | nsP2pro inh
O=C(CC1CCCN(c2cn[nH]c(=O)c2)C1)N1CCCCC1 (configuration not stated) | -8%
Cc1cc2c(s1)c1cnn(Cc3cccc(F)c3)c(=O)c1n2C | -4%
C/C=C(/C(=C/C)c1ccc(O)cc1)c1ccc(O)cc1 | 6%
O=C(c1ccncc1)N1CC(c2nc(CCc3ccccc3)no2)C1 | -2%
CN1CC(O)c2cc(N=NC(=N)N)c(O)cc21 (configuration not stated) | -6%
COc1ccc(CCNc2oc(COc3ccc(Cl)cc3)nc2C#N)cc1OC | -20%
Cc1ccc(CNC(=O)N(C)CC2CCOCC2)cc1 | 1%
CC(C)(C)OC(=O)NCc1nnc(-c2cc3ccccc3[nH]2)o1 | 3%
Cc1csc(CN(C)c2ncnc3ccc(-c4ccc5c(c4)OCO5)cc23)n1 | i
C[C@]12C[C@@H]3S[C@H]3C[C@@H]1CC[C@H]1[C@H]3CC[C@@H](O)[C@@]3(C)CC[C@@H]12 | 1%
CCC(O)C(C)C1CCC(C(C)C(=O)O)O1 (configuration not stated) | 5%
CC(=O)NC(C(=O)O[C@H]1CCC(C)(C)[C@@H]2CC=C3C(=O)OCC3(O)[C@@]12C)C(C)C (some centres not stated) | -7%
CCCn1c(-c2ccc(F)cc2)nc2c(N3CCN(Cc4nc(OC)cc(OC)n4)CC3)nc(C)nc21 | i
COc1ccccc1NC(=O)c1cc2cc3ccc(OC)c(Cl)c3nc2s1 | -1%
COCC1CN(C2CCC2)CC12CCN(C(=O)c1ccsc1)CC2 (configuration not stated) | -13%
Cc1ccc(CNC(=O)c2nc(SCc3ccc(C)cc3)ncc2Cl)cc1 | -23%
CCN(CCCNC(=O)CN1N=C(c2ccc(C)cc2)CCC1=O)c1ccccc1 | -17%
COc1ccc(C2c3c(n(CCc4ccccc4)cnc3=N)Oc3ccc4ccccc4c32)cc1OC (configuration not stated) | ?
CCCCN1C(=O)NC(c2ccc(OC)cc2)C2=C1COC2=O (configuration not stated) | -6%
O=C(CNC(=O)c1ccc(Cl)c(C(F)(F)F)c1)OC(C(=O)Nc1cc(C(F)(F)F)ccc1Cl)c1ccccc1 (configuration not stated) | -2%
CC(C)(C)n1nc(-c2ccc(Cl)cc2)c2c(N)ncnc21 | 19%
CC1(C)CC2CC(C)(CN2S(=O)(=O)c2ccc(C(=O)Nc3ccc(Cl)cc3)cc2)C1 (configuration not stated) | 2%
CCn1c2ccccc2c2cc(NC(=O)COc3ccc(C)cc3C)ccc21 | -26%
CCCn1c(C)nc2c(NCCCN(CCO)CCO)nc(C)nc21 | -10%
CCn1ccc(C(=O)N2[C@@H]3CC[C@H]2CC(NC(=O)c2ccc(F)cc2)C3)n1 (some centres not stated) | -1%
Oc1c(CN2CCCCC2)cc(COCc2ccccc2)c2cccnc12 | i
C[C@H](CCC(=O)O)C[C@H](C)C[C@H](C)C(=O)/C=C(\O)[C@H](C)C[C@H](C)C/C=C/[C@@H](C)[C@@H](O)[C@@H](C)[C@@H](O)C[C@@H]1CC[C@@](C)([C@H]2CC[C@@](C)([C@@H](C)O)O2)O1 | 12%[10 µM]
O=C(Nc1nc2ccccc2s1)c1ccc2c(c1)OCCN(CCC(F)(F)F)C2 | i
C[C@]1(O)CC[C@@H]2C(C(=O)O)=CO[C@@H](O[C@@H]3O[C@H](CO)[C@@H](O)[C@H](O)[C@H]3O)[C@@H]21 | -1%
CCCNC(=O)C1C(c2ccc(NC(=O)c3ccco3)cc2)OC(=O)N1Cc1ccccc1 (configuration not stated) | -5%
Fc1ccc(-n2ncc3c(NCCCN4CCOCC4)ncnc32)cc1 | -27%
CC1=NOC2(CCN([S+](=O)([O-])c3c(C)noc3C)C2)C1 (configuration not stated) | -19%[39.2 µM]
O=C(NCC1CN(c2ccc(N3CCOCC3=O)cc2)C(=O)O1)c1ccc(Cl)s1 (configuration not stated) | 9%&17%
CC[C@@H](C)[C@H]1C(=O)O[C@H](C(C)C)C(=O)N(C)[C@@H](C(C)C)C(=O)O[C@H](C(C)C)C(=O)N(C)[C@@H](C(C)C)C(=O)O[C@H](CC(C)C)C(=O)N1C | ?
COc1cc(F)ccc1-c1nc(-c2c(C)noc2C)cc2[nH]c(C)cc12 | -9%[39.2 µM]
CCN1Cc2ccccc2N(CC(O)Cc2ccccc2)CCC1=O (configuration not stated) | -17%
Cc1cc(C(=O)N2CCCC(n3c(C)cnc3C3CCC3)C2)nn1C (configuration not stated) | i
COC[C@@H]1CN(C(=O)Cc2c(C)noc2C)C[C@H]1c1ccccn1 | i
CN(C)Cc1nnc(C2CC(NC(=O)CC3Cc4ccccc4C3)C2)n1C (configuration not stated) | 3%
NCCOc1cc(C(=O)Nc2cc(OCCN)c3ccccc3n2)nc(C(=O)Nc2cc(OCCN)c3ccccc3n2)c1 | 466%[activator]
Cc1cc(CN)cc(C)c1NC(=O)c1ccc(-c2cc(Cl)ccc2Cl)o1 | 89%[activator]
CC1(C)Oc2ncnc(N)c2N=C1c1ccc(C23CCC(CC(=O)O)(CC2)CC3)cc1 | -8%
Cc1ccc(-n2nc(C)c([C@@H]3C=C[C@@H](NCc4ccc(N(C)C)cc4)C3)c2C)cc1Cl | 7%[39.2 µM]
Cc1cccc(NC(=O)c2cnn3c(C)cc(C)nc23)c1 | -1%
CC(=O)O[C@H]1CC[C@@]2(C)C(=CC[C@H]3[C@@H]4CC[C@H](C(C)=O)[C@@]4(C)CC[C@@H]32)C1 | -6%
Cn1c(=O)[nH]cc(CC(=O)NCc2cccnc2-n2ccnc2)c1=O | 2%
O=C(Cn1ncc2c3ccccc3n(Cc3ccccc3)c2c1=O)NCc1ccccn1 | -21%
COc1cccc(NC(=O)CCNS(=O)(=O)c2ccc3c(c2)CCCC(=O)N3)c1 | -25%
CCn1nc(-c2ccccc2)c(-c2ccccc2)c(C(=O)Nc2nc(C)c(C(=O)N(C)C)s2)c1=O | -15%
O=C(COc1ccc(Cl)cc1)NCC(c1ccco1)S(=O)(=O)c1ccc(F)cc1 (configuration not stated) | -21%
Cc1ccccc1C(=O)N1CCC(C(=O)Nc2ccc(F)cc2F)CC1 | -9%
Cc1cc(OI)c(C(C)C)cc1-c1cc(C(C)C)c(OI)cc1C | 2%
Cn1c2cc(C#N)sc2c2cnn(Cc3ccccc3F)c(=O)c21 | -10%&4%
NC(=O)C1CCN(c2nc(-c3ccc4c(c3)OCO4)cs2)CC1 | i
CSc1ccc(CCNC(=O)CCc2c(C)nc3c4cccnc4nn3c2C)cc1 | -9%
Fc1cccc(CNc2ncnc3ccc(-c4cccc(Cl)c4)cc23)c1 | i
Cc1c2oc3c(C)ccc(C(=O)N[C@@H]4C(=O)N[C@H](C(C)C)C(=O)N5CCC[C@H]5C(=O)N(C)CC(=O)N(C)[C@@H](C(C)C)C(=O)O[C@@H]4C)c3nc-2c(C(=O)N[C@@H]2C(=O)N[C@H](C(C)C)C(=O)N3CCC[C@H]3C(=O)N(C)CC(=O)N(C)[C@@H](C(C)C)C(=O)O[C@@H]2C)c(N)c1=O | -26%
C[n+]1cccc(C(=O)[O-])c1 | -6%
COc1cc(C(=O)NCC(c2cccs2)S(=O)(=O)c2cccs2)cc(OC)c1OC (configuration not stated) | -11%
COc1ccc(-c2onc(C)c2C)cc1S(=O)(=O)N(C)Cc1ccccc1 | -6%
O=C(c1ccncc1)N1CCC2(CC1)CN(c1ncccn1)CC2CO (configuration not stated) | 0%
Cc1nn(-c2ccccc2)c(OC(=O)c2cccc(Br)c2)c1S(=O)(=O)c1ccccc1 | -24%
CC1=C2C(O)C(=O)OC(c3ccoc3)C2(C)CCC1O (configuration not stated) | ?
The list continues:
SMILES | nsP2pro inh
CC(=O)OC[C@]1(O)[C@H]2[C@H](OC(=O)CC(C)C)OC=C(CO[C@@H]3O[C@H](CO)[C@@H](O)[C@H](O)[C@H]3O)[C@H]2C[C@@H]1O | 63%[activator][10 µM]
CC(C)CN1CCN(c2nc(CCN)nc3ccccc23)CC1CCO (configuration not stated) | -3%
C/C=C(\C)C(=O)O[C@H]1[C@H](OC(C)=O)[C@]2(CO)[C@H](O)[C@H](O)[C@]3(C)C(=CCC4[C@@]5(C)CC[C@H](O[C@@H]6O[C@H](C(=O)O)[C@@H](O)[C@H](O[C@@H]7OC[C@H](O)[C@H](O[C@@H]8OC[C@H](O)[C@H](O)[C@H]8O)[C@H]7O)[C@H]6O[C@@H]6O[C@H](CO)[C@@H](O)[C@H](O)[C@H]6O)C(C)(C)C5CC[C@]43C)[C@@H]2CC1(C)C (some centres not stated) | ?
Cc1nc2cc(N3CCC(C(=O)O)CC3)cnc2nc1C | 0%
O=c1[nH]c(=O)n([C@H]2C[C@H](O)[C@@H](CO)O2)cc1C(F)(F)F | -31%&-1%
O=C(OCC#CCSc1nnc(-c2cccc(F)c2)o1)c1ccc(F)cc1 | -11%
Cc1cc(SCc2sc(-c3ccc(C(F)(F)F)c(F)c3)nc2C)ccc1OCC(=O)O | 261%[activator]
CCC(Sc1nc2cc3c(cc2c(=O)n1CCCCCC(=O)NCc1ccc2c(c1)OCO2)OCO3)C(=O)NCCCOC (configuration not stated) | -21%
Cc1nc(C)c(C(=O)N2CCCC(c3nn(C)c(=O)n3C(C)C)C2)s1 (configuration not stated) | -2%
C[C@@H]1C[C@@H](O)[C@@]2(CO)C(CO)=CCC[C@@H]2[C@@]12C[C@@H](c1ccoc1)OC2=O | ?
Cc1cccc(-n2cnc3cc(C(=O)N4CCCC(C)C4)ccc32)c1 (configuration not stated) | 4%
CC(C)(C)C(=O)Cn1c(=O)n(-c2ccccc2)c(=O)c2c3c(sc21)CCC3 | -8%
O=C(CS(=O)(=O)c1cccc2nsnc12)N1CCN(c2ccccc2)CC1 | -19%
COc1ccc(Cl)cc1Nc1cc(C)nc2nc(-c3ccccc3C)nn12 | -9%
COCc1nc(C2CCN(C(=O)NCC(C)C)C2)no1 (configuration not stated) | -1%
COc1ccccc1CNC(=O)c1sc2nc3n(c(=O)c2c1C)CCC3 | -12%
COc1ccc(-c2cc(-c3ccccc3)c(C#N)c(SCC(O)CS(=O)(=O)Cc3ccc(Cl)cc3)n2)cc1 (configuration not stated) | -21%
Cc1noc(-c2cccn3c(CNC(=O)Cc4cccc(F)c4)nnc23)n1 | 3%
Cc1ccc(C2c3[nH]c4ccccc4c3CCN2C(=O)c2ccccc2Br)cc1 (configuration not stated) | -12%
O=C(/C=C/c1cn(CC(O)CN2CCCCCC2)c2ccccc12)c1ccc(Br)cc1 (configuration not stated) | 40%[activator]
Cc1oc2ncn(CC(C)C)c(=O)c2c1C(=O)N1CCN(c2cccc(C(F)(F)F)c2)CC1 | -13%
c1ccc(-c2nc(C3CCOCC3)no2)c(OC2CCN(C3CCCC3)C2)c1 (configuration not stated) | -9%
Cc1cc(NS(=O)(=O)c2ccc(NC(=O)C(C)(C)c3ccc(Cl)c(Cl)c3)cc2)no1 | 2%
O=C(Nc1ccc(S(=O)(=O)Nc2nccs2)cc1)c1ccc2ccccc2c1 | i
COC(=O)c1cnn2c(C)c(Cc3c(C)cc(C)cc3C)c(C)nc12 | ?
